CDC25B-CDK2 inh: primary biochemical HTRF screen for blockers of M-phase inducer phosphatase 2 binding to CDK2/cyclin A | hit rate 0.72% among 94,000 | z-score (concentration not given with the values) | AID 1259370, 2018 | P30305+P24941 | HTRF CDC25B-CDK2/CyclinA binding, anti-His/anti-Flag; hits give high values;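 note: score is relative to mean and SD of negative controls; strong numbers were not always called active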
HIV TAR-Tat: TAR RNA-Tat peptide displacers, HIV-1, primary screen, biochemical, FRET, FAM/TAMRA-labeled Tat. AID 1259389, 2018. z-score (no concentration beside the values). hit rate 0.6% among 100,000. HIV-1 TAR RNA, Tat peptide displacement FRET; hits give high values;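 note: score is relative to mean and SD of negative controls; some compounds called inactive have numbers as strong as hits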
* marks the source's active call; other numbers are inactive results; / = not tested or not shown; & = joins results of further samples.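 Rule for the calls: active = z-score from 3 up in half or more of its runs; inactive = the rest.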

structure	HIV TAR-Tat	CDC25B-CDK2 inh
CCCCC1CCC(C(=O)Oc2ccc(-n3cnnn3)cc2)CC1 (stereo not drawn)	-0.62	-2
O=C(CCCn1c(=O)c2cccn2c2cccnc21)N1CCN(c2ccccn2)CC1	0.61	/
O=C(CSc1n[nH]c(-c2ccccc2)n1)Nc1ccc(Br)cn1	0.59	-2.1
Cc1cc(C)n(-c2nc(-c3ccc(Br)cc3)cs2)n1	/	-1.3
O=S1(=O)C[C@H](NCc2ccccc2)[C@@H](S(=O)(=O)c2ccc(Cl)cc2)C1	1.7	-0.16
N/C(=N/OC(=O)Nc1cccc(C(F)(F)F)c1)C1COc2ccccc2O1 (stereo not drawn)	/	-1.6
Cc1cc(=O)n2nc(N3CCCC(C(=O)NCCC4=CCCCC4)C3)sc2n1 (stereo not drawn)	3.6	-1.3
COc1ccc(Nc2c(-c3ccc(N(C)C)cc3)nc3ncccn23)cc1	-0.2	-3.5
O=c1[nH]c2ccc(NCc3cc(Br)ccc3OCc3ccccc3)cc2[nH]1	-3.1	13*
O=C(C1Cc2ccccc2N1C(=O)c1ccccc1)N1CCN(C2CCCCC2)CC1 (stereo not drawn)	2.2	/
Nc1c(-c2ccncc2)[nH]c2ccc(F)cc12	-1.1	/
Cc1c(C)n(CC(O)CNC2CCCCC2)c2ccccc12 (stereo not drawn)	2.4	-1
CN(C)CCNc1oc(-c2ccc(S(=O)(=O)N3CCc4ccccc4C3)cc2)nc1C#N	-2.1	-1.5
Cc1cc2oc(C(=O)Nc3ccc(-n4cnnn4)cc3)c(C)c2cc1Cl	0.94	0.16
N#Cc1cnc(Sc2nnc(-c3ccncc3)o2)nc1N	/	-0.87
CCOC(=O)c1noc2nc(C)nc(Nc3ccc(F)cc3F)c12	0.79	/
Cc1ccc(CNS(=O)(=O)c2ccc(-c3cc(C(F)(F)F)on3)s2)cc1	1.8	/
COC(=O)NNc1cc(C(F)(F)F)ccn1	/	-1.9
O=C(NC1CCCC1)C1CCC(CNS(=O)(=O)c2cccs2)CC1 (stereo not drawn)	/	-2.5
Cc1ccc(S(=O)(=O)c2nnn(-c3ccccc3)c2C)cc1	0.44	0.03
O=C(NCc1ccco1)N1CCC2(CC1)Nc1cc(F)ccc1-n1cccc12	0.62	/
c1ccc2c(c1)nc(CN1CCCCC1)n1c3ccccc3nc21	/	-1.9
O=C(Cn1c(-c2cncs2)nc2ccccc21)Nc1ccc2c(c1)OCCO2	-1.1	-0.86
CC1CCc2nn(CC(=O)Nc3ccc4c(c3)OCCO4)cc2C1 (stereo not drawn)	-0.04	-1.1
Nc1nc(-c2cccs2)cc(C(F)(F)F)n1	/	-1.2
CC1CSc2ccc(S(=O)(=O)NCc3ccco3)cc2NC1=O (stereo not drawn)	1.4	/
Cc1cc(NC(=O)Nc2cc(Cl)sc2Cl)no1	/	0.17
CCC(SC1=NS(=O)(=O)c2cc(F)ccc2N1)C(=O)OC (stereo not drawn)	1	/
Cn1c(=O)oc2cc(S(=O)(=O)N3CCCC3c3ccc(F)cc3)ccc21 (stereo not drawn)	-0.47	-0.97
CCCOc1ccc(N2CC(C(=O)O)CC2=O)cc1 (stereo not drawn)	1.1	-1.7
Cc1ccc(C(CNC(=O)c2oc3ccccc3c2C)N2CCN(C)CC2)o1 (stereo not drawn)	0.15	-0.53
CN(Cc1ccco1)C(=O)c1nn(C)c2c1COc1ccccc1-2	0.38	-2
O=C(CN1C(=O)c2ccccc2S1(=O)=O)N1CCN(c2cccc(Cl)c2)CC1	/	-1.4
ONC=NCc1ccccc1OC(F)(F)F	/	0.04
CCOc1ccc(Oc2cc(C)nc(SC)n2)nn1	2.5	-1.8
CN(CCc1ccncc1)[C@H]1CS(=O)(=O)C[C@@H]1S(=O)(=O)c1ccc(Cl)cc1	1.7	-2.3
Cn1c(=O)c2sccc2n2c(CCCC(=O)Nc3ccccc3)nnc12	1.2	/
CCCCN(Cc1ccco1)C(=O)c1cc2c(=O)oc3ccc(C)cc3c2s1	-0.35	-1.5
CC(=O)C1C(c2ccc(OCc3ccccc3)cc2)NC(=O)NC1(O)C(F)(F)F (stereo not drawn)	/	-1.7
Cc1nc2ccc(Cl)cc2nc1C	/	-2.3

Ordered by number of heavy atoms (ascending): part of the list above
structure	HIV TAR-Tat	CDC25B-CDK2 inh
Cc1nc2ccc(Cl)cc2nc1C	/	-2.3
Nc1nc(-c2cccs2)cc(C(F)(F)F)n1	/	-1.2
Cc1cc(NC(=O)Nc2cc(Cl)sc2Cl)no1	/	0.17
c1ccc2c(c1)nc(CN1CCCCC1)n1c3ccccc3nc21	/	-1.9
Cc1ccc(CNS(=O)(=O)c2ccc(-c3cc(C(F)(F)F)on3)s2)cc1	1.8	/
O=C(C1Cc2ccccc2N1C(=O)c1ccccc1)N1CCN(C2CCCCC2)CC1 (stereo not drawn)	2.2	/

Further compounds:
structure	HIV TAR-Tat	CDC25B-CDK2 inh
COc1ccc(S(=O)(=O)n2nc(-c3ccccc3)cc2N)cc1OC	1.1	0.51
O=C(OC(c1ccc2c(c1)OCO2)c1nccc2ccccc12)c1ccco1 (stereo not drawn)	/	-0.66
CC1CC(=O)Nc2cc(S(=O)(=O)N3CCN(c4ccc(Cl)cc4)CC3)ccc2S1 (stereo not drawn)	2.2	/
N#Cc1nc(/C=C/c2ccc(Cl)cc2)oc1N1CCN(C(=O)c2ccc(F)cc2)CC1	-0.16	-1.3
CCCCOC(=O)Nc1ccc(S(=O)(=O)Nc2onc(C)c2C)cc1	1.2	0.4
Cc1nnc2c(N3CCN(c4ncccn4)CC3)nc3ccc(C(=O)c4ccccc4)cc3n12	0.22	/
NNC(=O)CNc1ccc(F)cc1	/	-3.1
CN(CCc1ccccn1)S(=O)(=O)c1cccc(Cl)c1	/	-1.5
CC(C)(C)c1ccc(C(=O)Nc2onc3c2CCCC3)cc1	-0.57	1.6
CCc1ccc(OC(=O)CSc2nc(-c3ccc4c(c3)OCO4)nc3cc(=O)[nH]n23)cc1	1.3	/
Cc1ccc(C(=O)CC2(O)C(=O)N(Cc3ccccc3C)c3ccc(Cl)cc32)o1 (stereo not drawn)	3.7	0.5
CC(C)c1nn2cc(-c3ccc(Br)cc3)nc2s1	0.77	-0.19
Cc1ccc(-c2nc(C)c(CCNS(=O)(=O)c3ccc4ccccc4c3)s2)cc1	1.2	/
COCCNC(=O)C1CCN(c2ccc(-c3cccs3)nn2)CC1	0.36	/
COC(=O)c1c(C)nc(C)c2c(=O)oc3ccccc3c12	0.08	-0.3
O=C(CSc1nccn(-c2cccc(Cl)c2)c1=O)Nc1ccccc1	-0.56	/
Oc1c(C(Nc2ccc(Cl)cc2)c2cccnc2)ccc2cccnc12 (stereo not drawn)	0.14	1.4
COc1cc(CNCCSc2nnnn2C)ccc1OCc1ccc(F)cc1Cl	-0.41	-1.2
O=C(c1ccccc1)N(Cc1ccc(Cl)cc1)CC1CCCO1 (stereo not drawn)	1.4	0.23
O=C1C2C(c3ccccc3)OC3(C(=O)c4ccccc4C3=O)C2C(=O)N1CCc1ccccc1 (stereo not drawn)	/	-0.48

In another format: results already given.
Order of values – HIV TAR-Tat | CDC25B-CDK2 inh
NNC(=O)CNc1ccc(F)cc1
  / | -3.1
CN(CCc1ccccn1)S(=O)(=O)c1cccc(Cl)c1
  / | -1.5

(continued)
structure	HIV TAR-Tat	CDC25B-CDK2 inh
O=C(NC1CC1)c1ccc2c(c1)N(Cc1ccccc1)C(=O)CS2=O (stereo not drawn)	/	0.1
COc1ccc(OC)c(C2Nc3ccccc3NC3=C2C(=O)CC(C)(C)C3)c1 (stereo not drawn)	-0.48	-1.3
CCn1c2ccccc2c2cc(NS(=O)(=O)c3cccc([N+](=O)[O-])c3)ccc21	/	-0.44
CCC(=O)N1c2ccccc2CC1C(=O)NCCc1c(C)noc1C (stereo not drawn)	0.14	/
CCSc1cccc(C(=O)Nc2sc3c(c2C(N)=O)CCC3)c1	0.93	/
CCOC(=O)C12C(=O)OC(C)(C)C1C2(CC)C(=O)c1ccc(F)cc1 (stereo not drawn)	0.51	-1&0.8
c1cc(N2CCOCC2)ccc1Nc1c2c(nc3nncn13)CCC2	-0.33	-1.7
COc1ccc(C(O)C(Nc2ccccc2)c2nc3ccccc3n2C)cc1 (stereo not drawn)	/	-0.19
Clc1ccccc1C1CC(c2ccco2)n2ncnc2N1 (stereo not drawn)	0.81	-0.28
Cc1cc(-c2ccc(C)c(S(=O)(=O)N(C(C)C)C3CCCCC3)c2)on1	1.7	/
O=S(=O)(NC1COc2ccc(Br)cc2C1)c1cnc[nH]1 (stereo not drawn)	1.3	/
CC1=C(C(=O)Nc2cccc(C)n2)C(c2ccc3c(c2)OCO3)C2=C(CC(C)(C)CC2=O)N1 (stereo not drawn)	1.3	-0.83
CCc1ccc(-c2[nH]nc3nc(-c4cccc(C)c4)cc(C(=O)O)c23)cc1	2.9	/
O=C(O)CCCNc1n[nH]c(=O)[nH]c1=O	-0.07	-0.82
Cn1c(=O)c2c(nc(CN3CCOCC3)n2CCN2CCOCC2)n(C)c1=O	0.43	-1.1
Cc1cc(C)cc(Nc2cc(C)nc3nc(-c4ccco4)nn23)c1	0.06	/
O=C(c1ccc(S(=O)(=O)N2CCc3ccccc3C2)s1)N1CCCC1	0.21	/
COCCn1c(SCC(=O)NCC2CCCO2)nc2c(c1=O)SCC2 (stereo not drawn)	0.78	-1.9
O=c1cc(CSCc2ccc(Cl)cc2)nc2sc(-c3cccs3)nn12	0.98	0.9
CCN1C(=O)C(Cc2nc3ccccc3c(=O)n2-c2ccc(Cl)cc2)c2ccccc21 (stereo not drawn)	0.81	-2.5
N#Cc1c(NC(=O)CSc2nnc3sc4ccccc4n23)sc2c1CCC2	/	-1.7
COc1ccc(OC)c(S(=O)(=O)NC(Cc2ccc(F)cc2)Cc2ccc(F)cc2)c1	3.2	/
Cc1ccc(CNc2nc(NC3CCCC3)nc3c2cnn3C)cc1	0.88	/
CCOC(=O)C(NC(C)=O)C(=O)OCC	/	0.26
CCOC(=O)c1c(C)oc2nc(C)nc(NCCCN3CCN(C4CCCCC4)CC3)c12	-0.53	/
Cc1ccc(C(=O)c2cn(CC(=O)NCC3CCCO3)c3nc(C)ccc3c2=O)cc1 (stereo not drawn)	-0.19	/
Cc1cccc(NC2=NC(c3ccccc3)n3c(nc(C)cc3=O)N2)c1 (stereo not drawn)	1.2	-0.76
O=C(CC1CCCCC1)NCc1cn2ccsc2n1	1.8	1
COc1ccc(COC(=O)C2=C(C)Nc3nnnn3C2c2ccc(N(C)C)cc2)cc1 (stereo not drawn)	-1	-2.1
Cc1cc2c(cc1S(=O)(=O)N1CCN(c3ccccc3)CC1)OCCN2C	1.1	/
CC(=O)c1ccc(Cl)c(-n2cccc2)c1	/	-1.6
COc1ccccc1-c1noc(CSc2nnc(-c3ccncc3)n2-c2ccc(Cl)cc2)n1	-0.01	-0.3
CCN(CC)CCOCCOC(=O)C1(c2ccccc2)CCCC1	-0.09	-0.72
COc1cc(C2CC(=O)Nc3c2cc(Br)c2ccccc32)ccc1O (stereo not drawn)	-0.38	-0.73
COc1ccc(-c2coc3c(O)c(OC)ccc3c2=O)cc1	-0.08	/
CCCCCN[C@H]1CS(=O)(=O)C[C@@H]1S(=O)(=O)c1ccc(Cl)cc1	0.82	-1.6
CCOC(=O)c1sc(-c2ccccc2)nc1CSc1nnc(SCC2CC2)s1	/	0.32
O=C(Nc1c(C(c2ccc(Br)cc2)N2CCOCC2)oc2ccccc12)c1ccco1 (stereo not drawn)	0.95	-0.18
Cc1cc2c(CC(O)C(Cl)(Cl)Cl)nc(-c3ccccc3)nc2s1 (stereo not drawn)	/	-3.5
O=C(NC(=S)N1CCCCC1)c1ccccc1	/	-0.39
CC(C)c1ccc(NS(=O)(=O)c2ccc(-c3ccc(=O)[nH]n3)s2)cc1	-1.3	/
Clc1ccc(-c2nnc(-c3ccc(Cl)cc3)o2)cc1	/	-0.66
CCN(c1ccccc1)S(=O)(=O)c1ccc2[nH]cc(C(=O)NCC3CCCO3)c(=O)c2c1 (stereo not drawn)	/	-0.8
O=c1cc2nc(-c3ccco3)nc(SCc3cccc(Br)c3)n2[nH]1	2	/
NNC(=O)c1cc2ncc(C(F)(F)F)cc2s1	/	-0.12
Cc1occc1-c1nnc(SCC(=O)c2ccc(F)cc2)o1	-0.94	-0.66
O=c1[nH]c(C2CCCN(S(=O)(=O)c3ccccc3)C2)nc2c1nnn2Cc1ccccc1F (stereo not drawn)	-0.46	-3.1
CCC(C(=O)NNC(=O)c1ccccc1N)c1ccccc1 (stereo not drawn)	/	-1.5
O=S(=O)(c1cccc(S(=O)(=O)N2CCN(c3ncccn3)CC2)c1)N1CCOCC1	0.08	-1.3
CCOC(=O)CC1=C(C(=O)OCC)C(c2cccs2)C(C#N)=C(N)O1 (stereo not drawn)	/	-2.5
Cc1c(C(=O)OCC(C)C)[nH]c2c1C(=O)CC(c1cccs1)C2 (stereo not drawn)	/	-0.67
